Screens as filed in PubChem.
NS1 inh – inhibitors of influenza NS1 protein function; S. cerevisiae slowed by influenza A NS1, growth recovery by OD600; Potency, µM (top dose mostly 46.1 µM), for the others: top-dose activity, positive = more growth; actives 0.4% (n = 270,000); AID 2326; active means well fitted rising curve with a large enough effect; inconclusive means small, poorly fitted or top-dose-only effect; inactive means no such curve, though single readings can be large or run the other way; further: nearly all actives have a fitted effect of over 50% in size
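In this qHTS, NS1 from influenza A is expressed in budding yeast, where it slows growth. Cells are switched from glucose to 2% galactose medium (pH 6.0, -URA), treated with compound, and growth recovery is read at OD600.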
RE007 growth inh – less growth of the S. pombe RE007 Vpr strain. S. pombe RE007 Vpr strain, BacTiter-Glo ATP luminescence, 24 h; control for the full effect not named in the record. actives 0.21% (n = 360,000). Potency, µM (highest dose often 92.2 µM), for inactives: top-dose activity change, negative = less growth; active = well fitted falling curve with a large enough effect; inconclusive = small, poorly fitted or top-dose-only effect; inactive = no such curve, though single readings can be large or run the other way;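 further: on the % scale 0 is the no-effect control and ±100 the full control effect; nearly all actives have a fitted effect of over 50% in size; the assay follows cell death caused by Vpr and the record does not say whether a fall means rescue or toxicity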
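Fission yeast RE007 carrying one integrated HIV-1 vpr copy, seeded at OD 0.01 in PMG+AL medium with 23 nL pinned compound. Grown 24 h at 30 degrees; viability read by BacTiter-Glo luminescence after 5 min.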
MARV entry inh – Marburg virus entry inhibition; Marburg virus pseudotyped entry inhibition, cell reporter; control for the full effect not named in the record; about a third of the inactives were read at about 46 µM; Potency, µM (top dose mostly 37.8 µM), without a hit: top-dose activity change, negative = inhibition, usual class: inhibitors; actives 1.8% (n = 300,000); AID 540276; active = well fitted inhibition curve with a large enough effect; inconclusive = small, poorly fitted or top-dose-only effect, or effect the other way; inactive = flat fitted curve, though single readings scatter; tested in HEK293 cells; about a fifth of its hits are not listed in these tables; further: on the % scale 0 is the no-effect control and ±100 the full control effect; luciferase read-out
Cruzain Triton – cruzain (T. cruzi) inhibition with detergent; actives 0.43% (n = 200,000); AID 1478; P25779; Potency, µM, for the others: max response, negative = inhibition, hits mostly inhibitors; purified cruzain, Z-FR-AMC fluorescence, 0.01% Triton;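 further: plate controls were neutral wells for no effect and buffer without enzyme for full effect; nearly all actives have a fitted effect of over 40% in size; top concentration of the series not given in the record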
Target sequence (P25779 123-467 limits assumed): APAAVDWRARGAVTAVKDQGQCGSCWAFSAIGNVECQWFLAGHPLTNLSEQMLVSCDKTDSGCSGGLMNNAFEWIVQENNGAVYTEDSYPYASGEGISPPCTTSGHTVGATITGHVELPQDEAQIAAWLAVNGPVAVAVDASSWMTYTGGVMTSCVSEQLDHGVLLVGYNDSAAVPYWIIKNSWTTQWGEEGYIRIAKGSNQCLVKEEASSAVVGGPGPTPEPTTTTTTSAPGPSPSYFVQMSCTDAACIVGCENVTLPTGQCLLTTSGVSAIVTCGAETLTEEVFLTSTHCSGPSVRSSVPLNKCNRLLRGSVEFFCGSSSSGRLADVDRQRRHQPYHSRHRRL
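Purified cruzain (1.5 nM final) was preincubated with compounds for 15 min at room temperature in 100 mM sodium acetate pH 5.5, 5 mM DTT, 0.01% Triton X-100. Reaction started with 2 uM Z-FR-AMC; AMC fluorescence change over 60 s gave activity.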
SARS PLP yeast – SARS-CoV PLP inhibition in yeast; S. cerevisiae expressing SARS-CoV PLpro, growth rescue; control for the full effect not named in the record; Potency, µM (highest dose often 32.9 µM), inactives show top-dose activity, positive = growth rescue; actives 0.19% (n = 330,000); active means well fitted rising curve with a large enough effect; inconclusive means small, poorly fitted or top-dose-only effect; inactive means no such curve, though single readings can be large or run the other way; further: 0% is about no effect; nearly all actives have a fitted effect of over 55% in size; growth read by luminescence after 48 h
2A StopGo – lowers the luciferase signal of an FMDV 2A StopGo reporter | AID 1159524 | Potency, µM (top dose mostly 57.9 µM), for the others: at the top dose signal change, negative = less light | human cells with a luciferase reporter of 2A StopGo recoding; control for the full effect not named in the record | actives 1.2% (n = 410,000); active = well fitted falling curve with a large enough effect; inconclusive = small, poorly fitted or top-dose-only effect; inactive = no such curve, though single readings can be large or run the other way; tested in HEK293T cells; further: on the % scale 0 is the no-effect control and ±100 the full control effect; nearly all actives have a fitted effect of over 45% in size; luciferase light after 4 h
LASV entry inh – inhibitors of Lassa virus binding or cell entry; Lassa virus pseudotype entry inhibition, cell reporter; control for the full effect not named in the record; Potency, µM (series often up to 37.9 µM), inactives show top-dose activity change, negative = inhibition, usual class: inhibitors; actives 1.2% (n = 300,000); AID 540256; active means well fitted inhibition curve with a large enough effect; inconclusive means small, poorly fitted or top-dose-only effect, or effect the other way; inactive means flat fitted curve, though single readings scatter; tested in HEK293 cells; further: on the % scale 0 is the no-effect control and ±100 the full control effect; nearly all actives have a fitted effect of over 50% in size; luciferase read-out
Cruzain noTriton – blocks cruzain activity in detergent-free assay | P25779 | purified cruzain, Z-FR-AMC fluorescence, no detergent | Potency, µM, inactives show max response, negative = inhibition, usual class: inhibitors | actives 2.3% (n = 200,000);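 further: plate controls were enzyme without inhibitor for no effect and buffer without enzyme for full effect; nearly all actives have a fitted effect of over 40% in size; top concentration of the series not given in the record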
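Detergent-free condition (0.00005% Triton X-100) in acetate buffer pH 5.5 with DTT. 1.5 nM enzyme and compound were pre-mixed 15 min, then 2 uM Z-FR-AMC substrate added; reaction progress from fluorescence change between first and third reads (60 s).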
* marks the source's active call; other numbers are inactive results; ? = inconclusive; . = no result given; & = joins results of further samples; [ ] = another dose, or the depositor's remark. Unless noted, the call rests on the fitted dose curve; in most records, active means well fitted curve in the direction sought with a large enough effect; inconclusive means small, poorly fitted or top-dose-only effect, or another doubt; inactive means no such curve, though single readings can be large; an effect the other way counts as inactive or inconclusive. Potency means the concentration at half of the fitted maximal effect.

Start of the listing, in advance:
SMILES | NS1 inh | RE007 growth inh | MARV entry inh | Cruzain Triton | SARS PLP yeast | 2A StopGo | LASV entry inh | Cruzain noTriton
Cc1ccc(-c2nnc(Cc3ccc(Cl)cc3)o2)cc1 | -66% | -18% | . | -2.8% | -4% | 56%[activator] | . | 15%
Cc1ccc(N2CCN(S(=O)(=O)N(C)C)CC2)cc1C | 2% | -10% | -4%[46.1 µM] | . | 0% | 7% | 0%[46.1 µM] | .
CC(NCC(=O)Nc1ccccc1C(=O)NC1CC1)c1ccccc1Cl (stereo not given) | . | 19% | -21% | . | 1% | -25% | -10% | .
Cc1cc(C)cc(OCC(=O)N2CCCCCC2)c1 | 0% | 3% | 21% | 3.8% | -1% | 0% | 17%[14.3 µM] | 1%
CCOc1ccc(-c2c(=O)n(OCc3ccc([N+](=O)[O-])cc3)c3ccccc3[n+]2[O-])cc1 | 29% | . | 3% | -0.9% | 3% | . | . | ?
Cn1c(OCc2cccnc2)nc2c1c(=O)n(Cc1ccc(F)cc1)c(=O)n2C | 0% | 0% | . | . | 3% | -8% | . | .
Cc1ccc(C(=O)N2CCN(c3cc4c(cc3[N+](=O)[O-])n(C)c(=O)n4C)CC2)cc1 | -3% | -16% | ? | -2.8% | 8.9µM* | . | -21% | ?
CC(C)C(c1nnnn1CC1CCCO1)N1CCN(Cc2ccc3c(c2)OCO3)CC1 (stereo not given) | -3% | 0% | ? | 6.0% | -3% | -8% | 2% | -13%
Cc1csc(N(C(=O)Cc2ccccc2F)c2ccccc2)n1 | -4% | 17% | -4% | 1.4% | -3% | -16% | -4% | 8%
COc1ccc2c(Sc3ccccc3)c(C(=O)NCc3cccc(OC)c3OC)[nH]c2c1 | . | . | ? | -5.5% | . | -13% | ? | -8%

The listing (from the top)
SMILES | NS1 inh | RE007 growth inh | MARV entry inh | Cruzain Triton | SARS PLP yeast | 2A StopGo | LASV entry inh | Cruzain noTriton
Cc1ccc(-c2nnc(Cc3ccc(Cl)cc3)o2)cc1 | -66% | -18% | . | -2.8% | -4% | 56%[activator] | . | 15%
Cc1ccc(N2CCN(S(=O)(=O)N(C)C)CC2)cc1C | 2% | -10% | -4%[46.1 µM] | . | 0% | 7% | 0%[46.1 µM] | .
CC(NCC(=O)Nc1ccccc1C(=O)NC1CC1)c1ccccc1Cl (stereo not given) | . | 19% | -21% | . | 1% | -25% | -10% | .
Cc1cc(C)cc(OCC(=O)N2CCCCCC2)c1 | 0% | 3% | 21% | 3.8% | -1% | 0% | 17%[14.3 µM] | 1%
CCOc1ccc(-c2c(=O)n(OCc3ccc([N+](=O)[O-])cc3)c3ccccc3[n+]2[O-])cc1 | 29% | . | 3% | -0.9% | 3% | . | . | ?
Cn1c(OCc2cccnc2)nc2c1c(=O)n(Cc1ccc(F)cc1)c(=O)n2C | 0% | 0% | . | . | 3% | -8% | . | .
Cc1ccc(C(=O)N2CCN(c3cc4c(cc3[N+](=O)[O-])n(C)c(=O)n4C)CC2)cc1 | -3% | -16% | ? | -2.8% | 8.9µM* | . | -21% | ?
CC(C)C(c1nnnn1CC1CCCO1)N1CCN(Cc2ccc3c(c2)OCO3)CC1 (stereo not given) | -3% | 0% | ? | 6.0% | -3% | -8% | 2% | -13%
Cc1csc(N(C(=O)Cc2ccccc2F)c2ccccc2)n1 | -4% | 17% | -4% | 1.4% | -3% | -16% | -4% | 8%
COc1ccc2c(Sc3ccccc3)c(C(=O)NCc3cccc(OC)c3OC)[nH]c2c1 | . | . | ? | -5.5% | . | -13% | ? | -8%
CCOc1cccc(NC(=O)/C(C#N)=C\c2cn(CC(=O)O)c3ccccc23)c1 | ? | -3% | . | . | 14% | 2% | . | .
Cc1ccc(CNC(=O)C(=O)NCC2OCCN2S(=O)(=O)c2ccc(Br)cc2)cc1 (stereo not given) | 9% | 2% | ? | . | 2% | ? | 7.9µM* | .
O=C(Cc1ccccc1[N+](=O)[O-])Nc1ccccc1C(=O)N1CCOCC1 | 5% | -6% | 18%[46.1 µM] | . | 0% | 10% | 10µM* | .
COc1ccc(-c2cc(C(=O)NCC(C)C)no2)cc1 | -10% | 16% | ? | 1.1% | 5% | 82%[activator] | ? | -9%
COc1cc2c(cc1OC)C(c1ccccc1Br)NC(=O)C2 (stereo not given) | 6% | 6% | . | . | -1% | -24% | . | .
O=C(C[n+]1cn(C(F)F)c2ccccc21)c1ccc(OC(F)F)cc1 | -49% | 0% | -4% | . | -2% | 38%[activator] | 19% | .
COc1cc(C2C(C(C)=O)=C(O)C(=O)N2c2ccc(C)cc2)ccc1O (stereo not given) | 4% | -11% | 8% | 1.1% | 2% | -12% | -4% | -9%
CCOC(=O)c1c(C)nc2c(C#N)cnn2c1C | -11% | 3% | -29% | 1.8% | -7% | -10% | 2% | -6%
Cc1cccc(N(CC(O)CON=C2c3ccccc3-c3ccccc32)S(C)(=O)=O)c1 (stereo not given) | 12% | 3% | 23µM* | -9.6% | -22% | . | -4% | ?
COc1ccc(C(C(=O)NCC2CCCO2)N(C(=O)Cn2nnc3ccccc32)c2ccc(NC(C)=O)cc2)c(OC)c1 (stereo not given) | 3% | -12% | -10%[46.1 µM] | . | 0% | 3% | 5%[46.1 µM] | .
CC1(C)Cc2c(cnn2-c2ccc(F)cc2)C(NC(=O)C(C)(C)O)C1 (stereo not given) | 21% | -4% | . | . | 2% | -13% | . | .
Cc1ccc(C(=O)C2=C(O)C(=O)N(Cc3cccnc3)C2c2ccc(N(C)C)cc2)o1 (stereo not given) | 0% | 2% | 7% | . | -1% | 5% | 2% | .
COC(=O)CSc1nnc(C2COc3ccccc3O2)n1-c1ccccc1 (stereo not given) | -35% | -1% | 5% | 7.7% | -1% | . | 13% | 4%
COc1ccc(OCc2n[nH]c(=S)o2)cc1 | 8% | 13% | 11% | 7.1% | 1% | 19% | 0% | -1%
C[N+]1(CCOS(=O)C23CC4CC(CC(C4)C2)C3)CCOCC1 (stereo not given) | 0% | 0% | 9% | 1.9% | 3% | 18% | ? | -10%
CC(=O)c1cccc(NC(=O)C(Sc2ncnc3ccccc23)c2ccccc2)c1 (stereo not given) | ? | -30% | -21% | -1.2% | 25% | -1% | 1% | ?
O=C(CSc1cn(CCNC(=O)c2cccs2)c2ccccc12)NC1CCCC1 | -4% | 2% | . | 0.8% | -4% | ? | . | -8%
CCC(C(=O)NC1CCCCC1)N(C(=O)c1snc(C(N)=O)c1N)c1ccc(OC)cc1OC (stereo not given) | 7% | 5% | 8%[46.1 µM] | . | 2% | ? | ? | .
CCCc1ncc(CN2CCCC(C(=O)Nc3ccc(-c4cccc(OC)c4)cc3)C2)cn1 (stereo not given) | 7% | 2% | . | . | -27% | -29% | . | .
CCCCC(=O)OCC(=O)Nc1ccc(C)c(F)c1 | . | -3% | 25%[46.1 µM] | . | 0% | -11% | -2% | .
CCN1C(=O)CC(NCc2ccc3c(c2)OCO3)C1=O (stereo not given) | 11% | -9% | -1% | 5.5% | 7% | 7% | 34%[14.3 µM] | -4%
Cc1cc(C)nc(N2CCC(CNC(=O)CCc3ccccc3)CC2)n1 | -14% | -1% | 19% | 1.4% | -14% | -13% | 8% | 0%
COc1ccc(NS(=O)(=O)c2cc3[nH]c(=O)c(=O)[nH]c3cc2C)cc1OC | . | . | . | -2.0% | . | -8% | -7%[46.1 µM] | -12%
Cc1ccc(C)c(S(=O)(=O)N2CCC(c3nc4c(nnn4Cc4ccc(F)cc4)c(=O)[nH]3)CC2)c1 | ? | -2% | -25%&-25% | 1.5% | 1% | -23% | ? | -5%
COc1ccc(-c2ccc(=O)[nH]n2)cc1 | -9% | 18% | -22% | -0.2% | 1% | 3% | -21%[14.3 µM] | -1%
CCOc1ccccc1C(=O)Nc1ccccc1O | -68% | ? | 8% | -2.7% | -31% | -8% | 11% | -15%
CC(=O)c1ccc(Nc2cnn(C34CC5CC(CC(CC(=O)O)(C5)C3)C4)c(=O)c2Cl)cc1 | . | 31% | ? | . | 3% | -13% | 4% | .
CCC(C)[C@H](NC(=O)NCc1ccc(OC)c(OC)c1)C(=O)O (stereo not given in full) | 1% | -3% | . | . | 1% | -9% | . | .
CCOC(=O)CNC(=O)Cc1ccc(OC)cc1 | 1% | 0% | 3%[14.2 µM] | . | -1% | -18% | -9% | .
CN(C)/C=C/C(=O)c1ccc(S(=O)(=O)c2ccccc2)cc1 | . | 2% | -1%[46.1 µM] | . | 1% | 2% | 11% | .
CC(C)C(C(=O)Nc1cccnc1)N1C(=O)c2ccccc2C1=O (stereo not given) | 24% | -7% | -10% | -0.6% | -5% | 16% | -1% | 6%
COC(=O)c1[nH]c2cc(OC)c(OC)cc2c1NC(=O)CN1CCN(Cc2ccccc2)CC1 | -5% | . | 3% | -1.8% | -3% | . | . | -10%
CC(=O)Nc1cccc(NC(=O)CSc2nc3c(=O)n(C)c(=O)n(C)c3n2C)c1 | . | 8% | -4% | . | 6% | -9% | 10% | .
Cc1ccccc1NC(=O)CSc1nnc(NC(=O)C2CC2)s1 | -4% | 26% | ? | . | 1% | -5% | ? | .
CCc1cccc2c(C(=O)C(F)(F)F)cn(CC(=O)NCC3CCCO3)c12 (stereo not given) | 4% | -10% | . | . | -1% | 1% | . | .
COc1cc(C)nc(NS(=O)(=O)c2ccccc2)n1 | 5% | -6% | 4% | -1.4% | -4% | 50%[activator] | -16% | -11%
COCCCNC(=O)C1CCCN(C(=O)Nc2ccc(OC)cc2)C1 (stereo not given) | 8% | -1% | -4% | 1.4% | 2% | 10% | 21% | 1%
CCCCn1c(=O)[nH]c(=O)c2c1nc(-c1ccc(OCC)cc1)n2CC | 1% | 6% | 6%[46.1 µM] | . | 6% | 36%[activator] | . | .
